StopGo FLuc: FMDV 2A StopGo reporter, firefly signal | HEK cells with a luciferase reporter of 2A StopGo recoding | Potency, µM (top dose mostly 57.5 µM), without a hit: at the highest dose signal change, negative = less light | 0.23% of 120,000 active; active = well fitted falling curve with a large enough effect; inconclusive = small, poorly fitted or top-dose-only effect; inactive = no such curve, though single readings can be large or run the other way; note: nearly all actives have a fitted effect of over 60% in size; overnight with compound
StopGo RLuc: lowers the Renilla signal of an FMDV 2A StopGo reporter. Potency, µM (top dose mostly 57.5 µM), inactives show at the top dose signal change, negative = less light. HEK cells with a luciferase reporter of 2A StopGo recoding. 0.32% of 120,000 active; active means well fitted falling curve with a large enough effect; inconclusive means small, poorly fitted or top-dose-only effect; inactive means no such curve, though single readings can be large or run the other way; note: nearly all actives have a fitted effect of over 55% in size; overnight with compound
Active calls of the source: *; ? = inconclusive; [ ] = dose if it differs, or a comment. % is set by controls: 0 for no effect and ±100 for the full control effect; potency is the fitted concentration of half-maximal effect. Compounds as they come, and some 0.53% of all compounds hit somewhere here.

SMILES | StopGo FLuc | StopGo RLuc
COc1ccc(F)cc1S(=O)(=O)NCCc1csc2nc(-c3cccc(C)c3)nn12 | -18% | -19%
NC(=O)c1ccc(COC(=O)CCC(=O)c2ccc(Cl)cc2)c([N+](=O)[O-])c1 | -8% | -5%[1.06 µM]
COc1ccccc1NC(=O)CSc1nc2c(oc3ccccc32)c(=O)n1-c1ccccc1F | 1% | -9%
CSc1cccc(NC(=O)Cc2cccs2)c1 | 110%[activator] | 58%[activator]
COc1ccc(OC)c(CNC(=O)c2nccnc2N)c1 | 8% | 0%
CCCCN(C)CCNC(=O)CN1C(=O)CSc2ccc(S(=O)(=O)N3CCOCC3)cc21 | -20% | -10%
Cc1cc(O)c(-c2n[nH]c3c2C(c2ccccc2F)N(CCCO)C3=O)cc1Cl (stereo not given) | -10% | 7%
O=C(/C=N/O)Nc1cccc([N+](=O)[O-])c1 | 4% | -10%
O=C(NCc1ccnc(N2CCCC2)c1)c1ccccc1F | 69%[activator] | 7%
CCCOC(=O)c1c(NC(=O)C(C)Sc2nc(-c3ccccc3)cc(C(F)(F)F)n2)sc(C(=O)N(C)C)c1C (stereo not given) | 1% | -2%
Cc1ccc(C)c(CN2CCC(CNC(=O)Nc3cn(CC(C)C)c(=O)c4ccccc34)CC2)c1 | -12% | -15%
O=C(COC(=O)c1cc(=O)c2ccccc2o1)Nc1ccc(Cl)cc1F | -3% | -16%
Cc1cccc(NC(=O)CSc2ncnc3ccccc23)c1 | 14% | -12%
N#Cc1nc(-c2cccc3ccccc23)oc1NCCCN1CCOCC1 | 0% | -7%
Cc1ccc(C(=O)Nc2ccc(Cl)c(-c3nc4ncccc4o3)c2)c(C)c1 | 28% | -4%
c1ccc2sc(-c3cc(NCCN4CCOCC4)nc4ccccc34)nc2c1 | 72%[activator] | -13%
Cc1ccc(CNC(=O)c2ccc3c(c2)nc2n3CCCC2)cc1 | 94%[activator] | -18%
CC1CS(=O)(=O)N(c2ccc(S(=O)(=O)NCc3cccnc3)cc2)C1=O (stereo not given) | 6% | 0%
CC1(C)Cc2cccc(OCC(=O)Nc3cccc(C(N)=O)c3)c2O1 | -1% | 15%
Cc1ccc(NC(=O)Cn2nc(N3CCN(c4ccccc4)CC3)ccc2=O)cc1F | -2% | 27%
CCOC(=O)c1[nH]c(C)c(C(=O)NCCc2ccccc2)c1C | 100%[activator] | -3%
CC1CN(C)CCC1NC(=O)Cc1cccc(C(F)(F)F)c1 (stereo not given) | -1% | -7%
O=C(CCn1c(=O)c2ccccc2n(Cc2cccc(Cl)c2)c1=O)NCCc1ccccc1 | -4% | -2%
CCOC(=O)c1cccc(NC(=O)[C@H](C(C)C)n2nnc3ccccc3c2=O)c1 | 8% | 167%[activator]
COc1ccc2oc(=O)c(C(=O)Nc3ccc(C(=O)O)cc3)cc2c1 | 7% | 3%
C=CCNC(=S)Nc1ccc(C)cc1Cl | 0% | 23%
CC(=O)c1ccc(NC(=O)c2ccc(-c3nc(COc4ccc(C)cc4)c(C)o3)cc2)cc1 | -11% | -13%
CCc1ccc(NC(=S)NCC(C)(C)N2CCOCC2)cc1 | 74%[activator] | 49%[activator]
Cc1ccc(NC(=O)CSc2nc3ccc(NC(=O)c4ccco4)cc3s2)c(C)c1 | -11% | 31%[activator]
CCN(CC)c1ccc(NC(=O)CCCN2C(=O)C(c3ccccc3)Oc3cccnc32)c(C)c1 (stereo not given) | -13% | -10%

Next part
SMILES | StopGo FLuc | StopGo RLuc
COc1ccc(-c2nn3c(=O)cc(CN4CCN(C(=O)Nc5ccc(C)c(Cl)c5)CC4)nc3s2)cc1 | -2% | -8%
COc1ccc(NC(=O)CSc2ncnc3ccccc23)c(OC)c1 | 24% | 18%
COc1ccc(CNc2nc(-c3ccc(Cl)cc3)cc(C(F)(F)F)n2)cc1 | 2% | 1%
CCOc1ccccc1NC(=O)c1c(NCc2ccc(C)o2)sc2c1CCCCC2 | -8% | -11%
COCCn1c(SCC(=O)c2ccc(Cl)s2)nnc1-c1ccncc1 | -12% | -4%
COc1ccc(-c2ocnc2C(=O)Nc2ccc(C)c(F)c2)cc1 | 4% | -8%
CCc1ccc(NC(=O)c2cc(=O)c3ccccc3o2)cc1 | 162%[activator] | 54%[activator]
Cc1cc(C)c(NC(=O)CN2C(=O)C3(SCC(=O)N3c3ccc(F)cc3)c3ccccc32)c(C)c1 (stereo not given) | ? | ?
CCN1CCN(C(=O)C(C)Sc2cc(C)c3cccc(C)c3n2)CC1 (stereo not given) | -12% | -19%
CC1=Nc2cc(C(=O)NCCc3ccc(Cl)cc3)ccc2Sc2c(C)ccc(C)c21 | -1% | 21%
CCOC(=O)c1c(C)oc2ccc(N(C(=O)Oc3ccccc3)S(=O)(=O)c3ccc(CC)cc3)cc12 | 17% | 185%[activator]
O=C(CSc1cn(CC(=O)N2CCCCC2)c2ccccc12)NCc1ccc(F)cc1 | 8% | 166%[activator]
COCCCNC(=O)c1nc(-c2cccc3[nH]ccc23)no1 | 200%[activator] | 27%
CCOC(=O)c1[nH]c(C)c(C(=O)Cn2cnc3ccccc3c2=O)c1C | 43%[activator] | 8%
Cc1nc2c(cnn2C(C)C)cc1C(=O)N(C)Cc1cccc(Cl)c1 | -14% | 0%
Cc1oc2cc(OCC(=O)N3CCCCCC3)ccc2c(=O)c1-c1ccc(Cl)cc1 | 12% | 1%
COc1cccc(OCCn2c(CN3CCCCC3)nc3ccccc32)c1 | -5% | -13%
N#Cc1cccc(Cn2c(=O)c3c(ncn3C3CCCC3)n(Cc3ccccc3)c2=O)c1 | -3% | -7%
Cc1nc(N2CCCC2)cc(N2CCN(C(=O)c3cccc(C(F)(F)F)c3)CC2)n1 | ? | ?
CCOC(=O)c1c(Nc2ccc(OCC)cc2)nnc(-c2ccccc2)c1-c1ccccc1 | 7% | -8%
Cc1ccc(CNC(=O)c2nn(C)c3c2CSc2ccc(C)cc2-3)cc1 | -24% | 14%
O=C(NCc1ccncc1)C1(c2cccc(C(F)(F)F)c2)CCOCC1 | -26% | -22%
Cc1ccc(NC(=O)c2cc(S(=O)(=O)N3CCC(C)CC3)cn2C)cc1Cl | -10% | -9%
COc1ccc(C2CCCN2Cc2cc(=O)oc3cc(C)ccc23)cc1 (stereo not given) | ? | ?
C=CCNC(=O)C(C)OC(=O)c1cc2ccc(OC)cc2nc1C (stereo not given) | 0% | 4%
Cc1oc2ccc(O)c(CN3CCC(C)CC3)c2c1C(=O)Nc1ccccc1 | -4% | -8%
COc1ccc(C2=NC(C(F)(F)F)(C(F)(F)F)N=C(N3CCOCC3)O2)cc1 | -9% | 3%
CCCc1nn2c(=O)cc(COC(=O)c3ccccc3NC(=O)c3cccs3)nc2s1 | -3% | 2%
Cc1cc(C(=O)OCC(=O)NC(=O)NC(C)C)c2ccccc2n1 | -3% | 2%
Cn1nc(C(=O)OCC(=O)Nc2cccc(C(F)(F)F)c2)c2ccccc2c1=O | ? | -5%

Carrying on:
SMILES | StopGo FLuc | StopGo RLuc
CS(=O)(=O)NCC1CCCN(C(=O)c2ccc3ccccc3n2)C1 (stereo not given) | -14% | -17%
CC(=O)Nc1ccc(NC(=O)CN2C(=O)CN(C)C(=O)c3ccccc32)cc1 | -8% | 0%
CC(C)C(Sc1nnc(-c2ccccc2)o1)C(=O)NCc1cccnc1 (stereo not given) | -18% | -20%
O=C(NC1CCC(c2ccccc2)CC1)C1CC2CCCC(C1)C2=O (stereo not given) | ? | ?
Cc1ccc(/C(O)=C2\C(=O)C(=O)N(c3nnc(C)s3)C2c2ccc(C)cc2)cc1 (stereo not given) | 0% | 4%
CC(C)Oc1ccc(CNC(=O)c2ccc3nc(SCc4ccc(F)cc4)n(C)c3c2)cc1 | 18% | -7%
COc1ccc(-c2c(C)c3ccc(O)c(CN4CCCCC4C)c3oc2=O)cc1OC (stereo not given) | -5% | -5%
Cn1c(=O)c2c(nc(CN(Cc3ccccc3)Cc3ccccc3)n2CCCO)n(C)c1=O | 13% | 16%
C=C(C)COc1cccc(NC(=O)c2ccccc2)c1 | 85%[activator] | 1%
Cc1ccc(C(c2cccc(Br)c2)c2cn(C)c3ccccc23)s1 (stereo not given) | 5% | 0%
CC(CCc1ccccc1)NC(=O)C1CCCO1 (stereo not given) | 25% | 0%
CC(C)(C)NC(=O)NC(=O)COC(=O)CCCc1c[nH]c2ccccc12 | -3% | -6%
Cc1ccc(CNC(=O)c2ccc3c(c2)CCN3S(=O)(=O)c2ccccc2)cc1 | 30% | 179%[activator]
Cc1ccccc1CN(C)C(=O)CN1CCC(c2nc3ccccc3s2)CC1 | 16% | -3%
CCOc1ccccc1NC(=O)NCc1c(C)nn(CC)c1C | 21% | 1%
CC(=O)c1ccc(NC(=O)N(C)CCc2noc(-c3ccc(C(=O)N4CCCCC4)cc3)n2)cc1 | 0% | 9%
CC1CCCC(NC(=O)/C=C/c2ccc3c(c2)CCO3)C1C (stereo not given) | 157%[activator] | 56%[activator]
CC(C)N(C(=O)COC(=O)c1n[nH]c(=O)c2ccccc12)C1CCCCC1 | -6% | -4%
Cc1cccc(NC(=O)Nc2cccs2)c1C | 0% | 67%[activator]
Cc1cccc(NC(=O)C(=O)NCC(c2ccc3c(c2)OCO3)N2CCN(C)CC2)c1C (stereo not given) | -18% | 9%
CCOc1ccc(-c2c(C)nn3c(-c4ccccc4)c(C(=O)NCCOC)cnc23)cc1OCC | -2% | -8%
Cc1ccccc1Cn1cccc(C(=O)Nc2cc(Cl)ccc2C#N)c1=O | -5% | -12%
CCc1ccc(OCC(=O)Nc2cc3c(cc2S(=O)(=O)c2ccc(C)cc2)n(C)c(=O)n3C)cc1 | 1% | 16%
Cc1cccc(N2CC(c3nc4ccccc4[nH]3)CC2=O)c1C (stereo not given) | -5% | 2%
O=C(NCCc1nc2ccccc2[nH]1)c1cccc(N2CCCN(Cc3ccccc3)C2=O)c1 | ? | ?
Cc1ccc(-c2nc3ncccc3o2)cc1NC(=O)COc1ccc(C(C)C)cc1 | -5% | 0%
Cc1nnc(NC(=O)c2cc(-c3ccncc3)nc3ccccc23)s1 | 22% | 14%
COC(=O)c1c(C)[nH]c(C(=O)COc2ccc3c(-c4ccccc4)cc(=O)oc3c2)c1C | 9% | 8%
COc1ccccc1CNS(=O)(=O)c1cc(-c2cc(C(F)(F)F)on2)ccc1C | 6% | 118%[activator]
CCn1cc(C#N)c(=O)n(Cc2coc(-c3ccc(Cl)cc3)n2)c1=O | 6% | -4%

Record cards, from the list above. Order of screens: StopGo FLuc, StopGo RLuc
C=C(C)COc1cccc(NC(=O)c2ccccc2)c1 as listed: 85%[activator], 1%
Cc1cccc(NC(=O)Nc2cccs2)c1C as listed: 0%, 67%[activator]
Cn1c(=O)c2c(nc(CN(Cc3ccccc3)Cc3ccccc3)n2CCCO)n(C)c1=O as listed: 13%, 16%
CC(C)(C)NC(=O)NC(=O)COC(=O)CCCc1c[nH]c2ccccc12 as listed: -3%, -6%

The list goes on:
SMILES | StopGo FLuc | StopGo RLuc
NC(=O)N/N=C/c1cccc(Br)c1 | 0% | 17%
c1coc(-c2nn3c(COc4ccc5c(c4)OCO5)nnc3s2)c1 | 17% | 2%
COc1ccc(Cl)cc1NC(=O)NCCc1c(C)nn(C)c1C | 7% | 21%
Cc1nnc(NC(=O)c2cc(-c3cccc(C)c3O)n[nH]2)s1 | 26% | -5%
Cc1ccc(C)c(N2CCN(C(=O)CCc3c(C)nn(-c4ccc(N5CCCC5)nn4)c3C)CC2)c1 | ? | ?
CCOc1ccc(NC(=O)/C(C#N)=C\c2ccc(-c3ccc(Cl)cc3)o2)cc1 | -5% | 2%
N#Cc1cccc(NC(=O)NCCNC(=O)Nc2cccc(C#N)c2)c1 | 41%[activator] | 9%
CS(=O)(=O)N1CCCc2cc(C(=O)Nc3cccc(C(F)(F)F)c3)ccc21 | ? | -10%
COc1ccc(CCNC(=O)Cn2nc(C)c3c(C)n(-c4ccc(C)cc4)nc3c2=O)c(OC)c1 | ? | ?
O=C(Nc1c(Cl)cccc1Cl)C1CC1(c1ccccc1)c1ccccc1 (stereo not given) | 9% | -2%
Cc1ccc(NC(=O)c2ccccc2C)c(Br)c1 | 65%[activator] | 0%
COc1ccccc1CSc1nc2n(n1)C(c1ccccc1)C(C(=O)Nc1ccc(C)cc1)=C(C)N2 (stereo not given) | 9% | -6%
COc1ccc(NC(=O)C2CCN(C3=NS(=O)(=O)C(c4ccc(C)c(C)c4)=C3C)CC2)c(OC)c1 | -9% | 4%
Cc1ccc(Cl)cc1NC(=O)CN1CCC2(CC1)OCCO2 | 0% | 7%
Cc1ccccc1CNC(=O)c1ccc(Cn2c(SCc3cccc(F)c3)nc3cccnc32)cc1 | -25% | 56%[activator]
CC(=O)Nc1c(-c2cc(=O)oc3c(C)c(C)ccc23)oc2ccccc12 | -3% | 25%
CC(C)c1ccc(CNCCc2c[nH]c3ccccc23)cc1 | 6% | -6%
ClC(Cl)(Cl)C1c2ccccc2Nc2ccccc21 | 13% | 5%

Not a retest: two of the compounds above.
SMILES | StopGo FLuc | StopGo RLuc
COc1ccc(NC(=O)C2CCN(C3=NS(=O)(=O)C(c4ccc(C)c(C)c4)=C3C)CC2)c(OC)c1 | -9% | 4%
Cc1ccc(Cl)cc1NC(=O)CN1CCC2(CC1)OCCO2 | 0% | 7%

Assay outcomes as filed in PubChem.
